# TRPML1 blocker: blocks the human TRPML1 channel | Q9GZU1 | TRPML1-inducible cells, Ca2+ dye fluorescence, FDSS; active compounds read low; inhibition of EC80 agonist-evoked calcium signal | activity change, negative = inhibition, % (no concentration beside the values) | hit rate 0.02% among 390,000 | AID 624415; in the data active means activity change below about -50%; inconclusive means about -30% to -50%; inactive means above about -30%;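 further: stimulus is agonist 54-4 at its EC80 concentration; on the % scale 0 is the no-effect control and ±100 the full control effect; compound concentration not given in the record; the text of the record puts the active cut at -80%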
#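 TRPML1-DL cells, Tet-induced overnight (~16 h, 37 °C) at 1,500 cells/well, were loaded with Ca8 no-wash dye plus quencher for 45-90 min at room temperature. Compounds were pinned during FDSS kinetic reading; agonist 54-4 at EC80 (4 uM final) then added.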
# Menin-MLL FL inh: displaces fluorescein MLL peptide from human menin; Fluorescence polarization, fluorescein-MLL peptide displacement from menin; FP activity change, % at 61.4 µM; 290,000 tested, under 10 active; AID 1766; inconclusive = falling polarisation curve, or a change in total fluorescence; inactive = total fluorescence flat and polarisation flat or rising; no compound was filed as active; the % refers to the polarisation; negative = inhibition;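 further: % of control where 0% means no effect; inhibitors lower the polarisation; unlabelled MLL peptide was the positive control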
# TRPML1 agonist: activates the human TRPML1 channel; activation, % (concentration not given with the values); Q9GZU1; AID 624414; TRPML1-expressing cells, Ca2+ dye fluorescence, FDSS; host cell line not named in the record; reference of the full effect not given here; hit rate 0.12% among 410,000; in the data active = activation above about 50%; inconclusive = about 30% to 50%; inactive = below about 30%; further: 0% is about no effect; the text of the record puts the active cut at 80%
#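 Calcium fluorescence on an FDSS kinetic reader gave the read-out. Tet-induced TRPML1-DL cells were plated overnight, dye-loaded (Ca8 with quencher, 45-90 min, room temperature, dark), then read 110 s after compound addition, and again 110 s after 4uM final 54-4 (EC80).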
# ClpP mod: qHTS Assay for Activators of ClpP; ATP-dependent Clp protease proteolytic subunit (Bacillus subtilis (strain 168)), P80244; purified B. subtilis ClpP, FRET peptide cleavage, 20 min; Potency, µM (highest dose often 57.5 µM), for inactives: at the highest dose activity change, negative = active; hit rate 1.9% among 340,000; active = well fitted falling curve with a large enough effect; inconclusive = small, poorly fitted or top-dose-only effect; inactive = no such curve, though single readings can be large or run the other way; further: potency means the concentration at half of the fitted maximal effect; the source files actives as falling curves though it sought activators and does not explain the sign; nearly all actives have a fitted effect of over 65% in size; many hits overshoot -100%
# Target sequence (P80244 whole entry, looked up): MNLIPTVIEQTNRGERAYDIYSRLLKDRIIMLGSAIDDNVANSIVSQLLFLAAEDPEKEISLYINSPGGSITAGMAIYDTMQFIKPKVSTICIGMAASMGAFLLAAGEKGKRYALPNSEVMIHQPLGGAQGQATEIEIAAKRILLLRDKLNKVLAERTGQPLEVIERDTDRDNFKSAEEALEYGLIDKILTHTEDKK
#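 Purified B. subtilis ClpP, 10 microg/mL final in Tris/HCl pH8 with KCl, BSA, glycerol and Tween-20, cleaved an Abz/nitrotyrosine-quenched decapeptide. Fluorescence (ex 320, em 430) was read at 0 and 20 min at room temperature. Delta was normalized to 5.8 microM ADEP and DMSO/no-enzyme controls.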
# Sfp inh: inhibitors of Bacillus subtilis Sfp phosphopantetheinyl transferase; Q9F4F7; Biochemical Sfp PPTase activity, qHTS; Potency, µM, for inactives: max response, negative = inhibition, most hits filed as inhibitors; hit rate 3.5% among 310,000; active means well fitted inhibition curve with a large enough effect; inconclusive means small, poorly fitted or top-dose-only effect, or another doubt; inactive means no such curve, though single readings can be large or run the other way;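 further: the enzyme is Sfp with the accession as filed and its product quenches rhodamine fluorescence; potency means the concentration at half of the fitted maximal effect; 0% = enzyme reaction without inhibitor and -100% = no enzyme wells; top concentration of the series not given in the record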
#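 Fluorescence-quenching assay: 15 nM Sfp-PPTase preincubated 15 min at room temperature with compound, then 5 uM rhodamine-CoA and 12.5 uM BHQ-2-labelled YbbR peptide added. Fluorescence (ex 525/em 598 nm) read at start and after 30 min; difference gives rate.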
# TRPV1 PAM: human TRPV1 potentiation | Q8NER1 | TRPV1-expressing cells, Fluo-8 calcium influx, capsaicin EC20 potentiation; host cell line not named in the record; control for the full effect not named in the record | potentiation, % at 8.33 µM | hit rate 0.02% among 320,000 | AID 540277; active means potentiation above 80%; inconclusive means 30% to 80%; inactive means below 30%; further: 0% is about no effect
# Target sequence (Q8NER1 whole entry, looked up): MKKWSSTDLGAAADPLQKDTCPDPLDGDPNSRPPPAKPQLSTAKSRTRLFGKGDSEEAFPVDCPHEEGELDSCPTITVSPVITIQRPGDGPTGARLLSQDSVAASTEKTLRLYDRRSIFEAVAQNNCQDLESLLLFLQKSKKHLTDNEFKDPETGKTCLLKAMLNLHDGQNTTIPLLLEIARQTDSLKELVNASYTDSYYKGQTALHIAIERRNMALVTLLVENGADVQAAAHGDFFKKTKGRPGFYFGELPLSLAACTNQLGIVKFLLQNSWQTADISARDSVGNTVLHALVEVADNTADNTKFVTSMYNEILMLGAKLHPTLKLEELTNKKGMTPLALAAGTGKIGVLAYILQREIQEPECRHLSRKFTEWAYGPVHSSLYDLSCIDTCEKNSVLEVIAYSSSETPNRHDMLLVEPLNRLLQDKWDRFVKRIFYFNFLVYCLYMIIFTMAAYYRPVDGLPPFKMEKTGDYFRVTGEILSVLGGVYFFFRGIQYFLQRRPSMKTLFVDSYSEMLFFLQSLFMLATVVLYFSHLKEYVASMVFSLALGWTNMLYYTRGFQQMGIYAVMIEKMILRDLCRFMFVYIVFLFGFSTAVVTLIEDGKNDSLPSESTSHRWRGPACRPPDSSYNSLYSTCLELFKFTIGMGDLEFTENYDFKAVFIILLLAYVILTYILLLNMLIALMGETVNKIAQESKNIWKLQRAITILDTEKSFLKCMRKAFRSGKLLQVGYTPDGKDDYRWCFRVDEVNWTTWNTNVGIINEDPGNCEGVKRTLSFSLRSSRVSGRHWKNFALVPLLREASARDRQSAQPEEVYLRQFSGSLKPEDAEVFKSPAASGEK
#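 TRPV1-expressing cells were cultured overnight at 35.5C and loaded with Fluo-8 calcium dye for 40 to 90 min at room temperature. After a 10 s baseline, compound was added and calcium influx was read kinetically for 3 min (ex 480/em 520 nm).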
# PINK1 modulator: modulators of PINK1 expression; PINK1 immunofluorescence, high-content cytometry, 24 h; Potency, µM (series often up to 76.6 µM), for the others: at the highest dose activation (PINK1 increase), most hits filed as activators; hit rate 0.2% among 410,000; AID 624263; active = well fitted activation curve with a large enough effect; inconclusive = small, poorly fitted or top-dose-only effect; inactive = flat fitted curve, though single readings scatter; cell line not stated here;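 further: potency means the concentration at half of the fitted maximal effect; % of control where 0% means no effect; nearly all actives have a fitted effect of over 65% in size; a mitochondrial uncoupler was the plate control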
#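 PINK1 protein, normally rapidly degraded, was detected by immunofluorescence after 24 hour compound treatment of a stable cell line. Titration data (5 concentrations) came from laser-scanning cytometry, with CCCP-treated wells as controls.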
# The depositor's hits bear a star; ? = inconclusive; · = no result given; [ ] = remark or other dose.
# Below each SMILES – TRPML1 blocker	Menin-MLL FL inh	TRPML1 agonist	ClpP mod	Sfp inh	TRPV1 PAM	PINK1 modulator
- C/C(=N/NC(=O)c1ccc2nc[nH]c2c1)c1cccs1
    19	0.1	-0.4	-3.1%	4%	-5	0.3%
- O=C(CCN1C(=O)c2ccccc2C1=O)CN1CCOCC1
    -3	5.3	0.1	-2.8%	9%	3	1.4%
- COCCn1c(SCC(=O)N2CCCCC2)nc2ccccc2c1=O
    3	-1.6	-0.7	0.1%	1%	-6	0.8%[38.3 µM]
- Cc1ccc(C2(C)NC(=O)N(CC(=O)NNC(=O)c3ccccc3)C2=O)cc1 (stereo not given)
    -12	·	-0.8	2.3%	·	1	1.5%
- CCOC(=O)C1=C(C)Nc2ncnn2C1c1ccc2c(c1)OCO2 (stereo not given)
    2	0.3	0.7	0.0%	23%	-2	·
- Cc1cc(NC(=O)c2cc([N+](=O)[O-])cc([N+](=O)[O-])c2)no1
    -9	-10	1.1	0.5%	7%	-8	1.3%
- NS(=O)(=O)c1ccc(CCNC(=O)Cn2c(=O)c3cccn3c3cccnc32)cc1
    2	-0.1	-0.1	3.4%	20%	-1	0.0%
- CC(=O)Nc1cccc(-c2cnc(N)c(C(=O)c3cccnc3)n2)c1
    2	·	-0.1	-13%	·	·	-1.9%
- CCCn1c(N)c(C(=O)COC(=O)CNC(=O)c2ccccc2OCC)c(=O)[nH]c1=O
    17	·	1.3	-4.7%	·	-4	2.6%
- O=C(NC1CCSC1=O)C1CCCCC1 (stereo not given)
    20	-0.9	0.6	·	-5%	-1	2.3%
- O=C(NC(=S)Nc1cc(-c2nc3ccccc3[nH]2)ccc1Cl)c1ccc2c(c1)OCO2
    2	-4.7	2.1	-11%	?	20	-5.7%
- Cc1ccc(-c2csc3ncnc(Cl)c23)cc1
    16	2.4	-0.2	-0.3%	-3%	7	-1.7%
- Cc1nc2oc3ccc(F)cc3c(=O)c2cc1C(=O)NC(C)(C)C
    -1	1.1	0.6	·	-6%	-3	0.3%
- O=C(O)C1CCC(=O)N(C2CCCCC2)C1c1ccccc1 (stereo not given)
    -5	-1.2	-0.5	0.5%	4%	8	-4.6%
- CCOc1ccc(S(=O)(=O)N(C)c2ccc(OCC(=O)NC3=NCCS3)cc2)cc1
    -17	-3.3	0.2	·	2%	8	1.7%
- CC(/C=C/c1ccc2c(c1)OCO2)=N\NC(=O)c1cccc([N+](=O)[O-])c1
    -7	-0.3	-0.2	-1.3%	-17%	3	?
- CCOc1ccc(S(=O)(=O)N2CC(=O)Nc3ccccc32)cc1C#N
    13	0.3	-0.2	·	4%	13	2.2%
- N#Cc1c(F)cccc1N1CCOCC1
    37	-1.2	-0.4	-7.4%	-7%	0	-1.4%
- CC1(C(=O)Nc2ccc3c(c2)OCO3)CC1(Cl)Cl (stereo not given)
    -9	1.1	1.0	-0.2%	2%	-14	-0.1%
- COc1cc(C(=O)NCC2CCCCC2)cc(OC)c1OC
    -1	0.8	-0.8	·	7%	7	0.4%
- Cc1sc2ncnc(N3CCC(C(=O)Nc4ccc(S(N)(=O)=O)cc4)CC3)c2c1C
    3	·	-0.9	1.6%	·	6	-0.3%
- O=C1CC(N2CCOCC2)=NN1c1ccc([N+](=O)[O-])cc1
    0	0.7	0.1	-4.6%	-5%	4	18%
- CC(=O)Nc1ccc(S(=O)(=O)N2CCSC2c2ccco2)cc1 (stereo not given)
    -4	4.6	-0.5	-0.4%	-4%	3	1.1%
- CC1(Cc2ccccc2OC(F)(F)F)C(=O)Nc2c(Cl)ccc(Cl)c21 (stereo not given)
    ·	·	0.9	3.0%	·	·	-1.3%
- CC(C)c1ccc(/C=N/NC(=O)c2nnn(-c3nonc3N)c2CN(C)C2CCCCC2)cc1
    -9	1.3	0.7	0.9%	20%	8	6.3%
- COC(=O)C1=C[C@@H](C(=O)OC)[C@@H]2C3=C(C(=O)[C@]2(C)NC(=O)c2ccccc2)[C@H](C)n2c(=O)n(-c4ccccc4)c(=O)n2[C@@H]3C1
    7	·	0.0	1.0%	·	·	3.0%
- CCCCn1nnc(NC(=O)CC23CC4CC(CC(C4)C2)C3)n1
    0	4.6	0.7	0.9%	-6%	-41	1.4%
- COc1cc2c(=O)n(Cc3ccccc3)c(=O)n(CC(=O)NCC3CCCO3)c2cc1OC (stereo not given)
    2	6.3	-0.1	?	16%	7	0.8%
- COc1ccc(C(C#N)N2CCC(c3ccccc3)=N2)cc1OC (stereo not given)
    -5	-3.7	0.0	·	13%	-1	0.1%
- Clc1ccc(CSc2nnc([C@@H]3CCCN3)o2)cc1
    0	7.9	-0.5	0.9%	-1%	-3	-1.5%
- CCCc1cc(C(=O)Nc2cc(OC)c(Cl)cc2OC)no1
    -6	-1.5	0.9	7.1%	-2%	·	0.4%
- CCn1c(SCC(=O)NC(C)C(C)C)nc2cc(S(=O)(=O)N3CCOCC3)ccc21 (stereo not given)
    -26	·	-0.3	3.8%	18%	-3	0.8%
- O=C(CSc1nc2ccsc2c(=O)n1Cc1ccccc1)NCc1ccco1
    15	0.6	3.3	3.4%	-21%	-19	?
- O=C(O)CCC(=O)Nc1ccccc1C(=O)Nc1ccccc1
    12	-2.3	1.2	3.8%	12%	4	-3.5%
- CCOC(=O)N1CCC(NC(=O)c2ccc3c(c2)N(Cc2ccc(Cl)cc2)C(=O)c2ccccc2S3=O)CC1 (stereo not given)
    10	·	-1.2	-2.2%	·	·	5.4%
- O=C(CC1Sc2ccccc2NC1=O)OC(C(=O)NCCc1ccccc1)c1cccnc1 (stereo not given)
    14	-4.3	0.5	-1.7%	7%	?	-0.8%
- CCOC(=O)N1CCN(C(=O)c2cc3c(=O)n(C)c4ccccc4c3n2C)CC1
    19	-0.6	0.4	-1.5%	15%	-13	-0.4%
- CCOc1ccc(N2C(=O)Nc3ccccc3C2(O)C(=O)NCc2ccc3c(c2)OCO3)cc1 (stereo not given)
    -1	-3.9	0.5	2.3%	10%	·	-0.5%
- CCOc1ccc(/C=N/NC(=O)COc2ccccc2-c2ccccc2)cc1
    -3	3.9	1.8	1.6%	13%	-7	0.6%
- Cc1cc2c(c(=O)o1)C(Cc1ccccc1)C(C#N)=C(N)O2 (stereo not given)
    21	12	3.3	-3.9%	9%	-10	-0.6%
- CN(C)S(=O)(=O)c1ccc(Cl)c(NC(=O)CN2CCCC2)c1
    7	-4.5	0.7	·	2%	20	0.1%
- C[C@]12c3[nH]c4cc(-c5ccco5)ccc4c3CCN1C(=O)[C@@H](CC(=O)NCc1ccco1)C[C@@H]2C(=O)N1CCCCC1
    5	·	-0.2	4.4%	·	·	14%
- O=C(Nc1ccccc1)Nc1nnc(SCc2ccc(Cl)cc2)s1
    -2	7.3	0.7	-1.0%	11%	?	4.3%
- CCOC1=NS(=O)(=O)c2ccccc21
    24	4.9	0.5	-0.6%	4%	3	-0.9%
- COc1ccc(NC(=O)c2c(-c3ccccc3Cl)noc2C)c(OC)c1
    6	-2.1	0.8	1.3%	6%	-6	5.3%[38.3 µM]
- COc1cccc(-c2c(-c3cc(OC)cc(OC)c3)n(C)c3ccc(-c4ccc5cc[nH]c5c4)cc23)c1
    -17	·	0.4	3.6%	·	·	0.8%
- O=C(CCNC(=O)c1ccc(Br)cc1)NCc1ccccn1
    -13	·	-0.2	-0.2%	·	-10	-1.9%
- COc1ccccc1CNC(=O)CSC(=S)N1CCCC1
    -4	·	0.2	-1.2%	·	12	-0.7%
- CC(=O)c1cccc(NC(=O)c2noc3c2CCCC3)c1
    5	·	-1.0	2.8%	·	·	4.0%
- COc1cccc(NC(=O)CN2C(=O)NC3(CCCC3)C2=O)c1
    -16	-0.5	0.9	·	9%	1	2.2%
- O=C(Cn1cc(C(=O)c2cccs2)c2ccccc21)NCc1ccc2c(c1)OCO2
    6	0.6	-0.6	-7.9%	?	-10	0.7%
- CCN(Cc1ccccc1)S(=O)(=O)c1nc2nc(C)c(C)c(C)n2n1
    -4	-0.5	-1.0	-2.6%	11%	7	-2.8%
- CCC(C(=O)NCc1ccc(C)o1)n1nc(C)c2c(C)n(-c3ccccc3)nc2c1=O (stereo not given)
    -13	·	-0.3	-2.4%	-7%	27	-0.3%
- CC(C)NC(=O)NNC(=O)c1nn(-c2ccc(F)cc2)ccc1=O
    9	-0.4	-0.7	-7.8%	4%	-3	-0.7%
- CC(=O)/C(=N\Nc1ccccc1Cl)Sc1cccc2cccnc12
    -14	2.7	0.6	0.6%	-26%	-16	4.1%
- COc1cc(C(c2c(C)[nH][nH]c2=O)c2c(C)[nH][nH]c2=O)cc(Br)c1OC
    ·	-1.9	·	0.7%	-24%	-4	1.9%
- Cn1nnnc1SCCCNCc1ccc(-c2cccc(Cl)c2)o1
    26	·	1.5	1.1%	·	·	0.8%
- COc1ccccc1-c1cc(C(F)(F)F)nc(S(=O)(=O)CCCC(=O)N2CCCCC2C)n1 (stereo not given)
    5	0.5	-1.2	-20%	4%	-5	-1.4%
- Oc1cc2ccccc2cc1-c1n[nH]c(=S)o1
    -5	-2.5	3.6	-27%	-13%	-6	?
- Cc1ccc(S(=O)(=O)N2CCOCC2)cc1C(=O)NC1CCCC1
    -5	1.1	-1.4	?	22%	-3	2.0%
- CCN(CC)CCN1c2ccccc2Sc2ccc3ccccc3c21
    -7	2.4	0.2	·	-19%	-4	24%
- CC[C@H](C)[C@H]1CNC(=S)N1CC1CCN(CCC(C)(C)C)CC1
    0	·	-0.1	-3.4%	·	·	0.0%
- COc1ccc(C2c3c(ccc4ccccc34)Oc3ncn4nc(-c5ccco5)nc4c32)cc1OC (stereo not given)
    12	0.0	-0.6	-7.0%	-23%	4	1.6%

# Two records drawn at random from those above:
# Below each SMILES – TRPML1 blocker	Menin-MLL FL inh	TRPML1 agonist	ClpP mod	Sfp inh	TRPV1 PAM	PINK1 modulator
- Cn1nnnc1SCCCNCc1ccc(-c2cccc(Cl)c2)o1
    26	·	1.5	1.1%	·	·	0.8%
- O=C(Nc1ccccc1)Nc1nnc(SCc2ccc(Cl)cc2)s1
    -2	7.3	0.7	-1.0%	11%	?	4.3%

# An unsorted share of the library, and some 4.4% of all compounds hit somewhere here.
